From PubChem
GIV Gai3 FP – inhibitors of GIV GBA-motif binding to rat Galpha-i3 | P08753 | Galpha-i3/FITC-GIV peptide fluorescence polarization, 90 min; hits give low values; scaled: aluminum fluoride 0%, vehicle 100% | percent of control (FP), % (concentration not given with the values) | actives 0.42% (n = 210,000) | AID 1224905;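 active means replicate mean at 85% of control or lower, very high polarization wells dropped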;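 further: wells of about 15 µL received 100 nL stock; the first replicate is given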
Target sequence (P08753 whole entry, looked up): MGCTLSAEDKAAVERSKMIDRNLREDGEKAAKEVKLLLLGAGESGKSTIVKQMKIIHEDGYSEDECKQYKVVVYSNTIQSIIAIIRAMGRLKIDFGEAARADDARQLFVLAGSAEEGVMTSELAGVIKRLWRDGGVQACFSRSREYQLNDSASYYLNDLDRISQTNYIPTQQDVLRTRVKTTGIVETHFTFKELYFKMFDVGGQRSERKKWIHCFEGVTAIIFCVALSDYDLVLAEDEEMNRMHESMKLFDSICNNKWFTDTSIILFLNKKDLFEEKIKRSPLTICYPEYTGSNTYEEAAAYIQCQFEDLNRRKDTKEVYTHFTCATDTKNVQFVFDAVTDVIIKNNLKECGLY
The depositor's hits bear a star.

GIV Gai3 FP,compound
102.7,Cc1ccc(C2CCCCCN2C(=O)NC2CCCCC2)s1 (stereo not given)
101.8,CCC(=O)Nc1nc(-c2cccnc2)nc2c1c(=O)oc1ccccc12
113.3,CCOC(=O)c1sc2ncnc(Nc3cccc(NC(C)=O)c3)c2c1C
106.1,Cn1nc(-c2ccc(Cl)cc2)c2cc(C(=O)Nc3ccccc3Br)sc21
104.6,CC(=O)Nc1ccc(C(=O)N2CCCC(c3nc(-c4ccc(NC(C)=O)cc4)no3)C2)cc1 (stereo not given)
106.1,Cc1cc(=O)oc2c3c(ccc12)O/C(=C\c1ccccc1O)C3=O
100.1,Cc1ccc(NC(=O)CCc2nc(CSc3nnc(-c4ccccc4)o3)no2)cc1
102.3,CCC(=O)N1c2ccccc2NC2=C(C(=O)CC(c3ccc(C)cc3)C2)C1c1cccc(OC)c1 (stereo not given)
103.4,Cc1ccc(-c2noc(CSc3nc4cc5c(cc4c(=O)n3-c3ccc(F)cc3)OCO5)n2)cc1
114.0,CCC(C)C(=O)N1c2c(C)cc(C)cc2C(=C2SC(C(=O)OC)=C(C(=O)OC)S2)C(=S)C1(C)C (stereo not given)
99.4,CCc1cc(C2CCCN2C(=O)c2c(Cl)cnn2C)on1 (stereo not given)
105.0,CCOC(=O)Cc1nnc2c(Nc3ccc(OC)cc3)nc3nonc3n12
101.2,CCOc1cc(C2C(C#N)=C(N)OC3=C2C(=O)CC(c2ccco2)C3)ccc1OC(=O)c1ccco1 (stereo not given)
99.3,COc1cc(NC(=O)Cn2cnc3c(sc4ncccc43)c2=O)cc(OC)c1
105.6,Cc1ccc(NC(c2cccc(Cl)c2)c2nnnn2C(C(Oc2ccc(Cl)cc2)n2cncn2)C(C)(C)C)cc1 (stereo not given)
103.6,Cc1noc(C)c1C1CCCN1C(=O)c1cnn2c(C(F)(F)F)cc(-c3ccccc3)nc12 (stereo not given)
102.2,CCC(=O)N1CCc2cc(N3CC(C(=O)NC(C)C)CC3=O)ccc21 (stereo not given)
98.7,O=C(C1CCN(c2nn3c(=O)c4c(nc3s2)CCCC4)CC1)N1CCN(c2ccccc2)CC1
104.6,O=C(c1ccccc1)N1c2ccccc2N=C(c2ccc(Br)cc2)CC1c1ccccc1 (stereo not given)
117.3,CCOc1ccc(S(=O)(=O)n2nnc3ccccc32)c2ccccc12
109.3,COc1ccc(N(CC(=O)Nc2cccc(Br)c2)S(=O)(=O)c2ccccc2)c(OC)c1
103.7,CC(C)OCCCNC(=O)c1ccc2c(=O)n(Cc3ccco3)c(SCC(=O)c3ccc(F)cc3)nc2c1
98.4,COc1ccc(-c2csc(NC(=O)c3ccc4c(c3)OCCO4)n2)cc1OC
99.4,Cc1ccc(NS(=O)(=O)c2cc(-c3noc(C4CC4)n3)cs2)nc1
102.2,O=C(Nc1cccc(Br)c1)N1CCN(Cc2nc3cccnc3n2-c2ccccc2)CC1

Individual results from above.
GIV Gai3 FP with O=C(Nc1cccc(Br)c1)N1CCN(Cc2nc3cccnc3n2-c2ccccc2)CC1 = 102.2
GIV Gai3 FP with Cc1cc(=O)oc2c3c(ccc12)O/C(=C\c1ccccc1O)C3=O = 106.1

The list continues.
GIV Gai3 FP,compound
100.9,O=C(NCc1cccc(Cl)c1)C1CCCN(c2nn3c(=O)c4c(nc3s2)CCCC4)C1 (stereo not given)
107.8,Cc1ccc(-n2nc3c(c2NC(=O)c2ccc(S(=O)(=O)N4CCCCC4)cc2)CS(=O)(=O)C3)c(C)c1
96.6,Cc1ccc2c(c1)N(C(=O)CSc1nnc3c4ccccc4nc(-c4ccccc4)n13)CCO2
104.0,O=C(Cn1nc2c3sc(N4CCCCC4)nc3ncn2c1=O)Nc1ccccc1
107.9,COc1ccc(-c2cc(C(F)(F)F)n3nc(C(=O)NCc4cccs4)cc3n2)cc1OC
103.9,Cc1cc(=O)oc2c3c(ccc12)O/C(=C/c1ccc(Br)cc1)C3=O
106.2,O=C(NCc1ccc2c(c1)OCO2)c1ccc2nc3[nH]c4ccccc4c3nc2c1
75.4*,CN(C)c1ccc(-c2nc3c([nH]2)c(=O)n(C)c(=O)n3C)cc1
99.0,O=S(=O)(c1ccc(Cl)cc1)N1CCN(c2ncnc3c2nnn3-c2ccccc2)CC1
111.9,COC(CNc1ncnc2c1c(-c1ccccc1)cn2-c1ccc(Br)cc1)OC
105.6,CCC(=O)Nc1cccc(-c2noc(C3CCCN(C(=O)c4cccc(F)c4)C3)n2)c1 (stereo not given)
110.0,COc1ccc(C(=O)Nc2cc(C(=O)Nc3ccc(F)c(F)c3)ccc2N2CC3CC(C2)c2cccc(=O)n2C3)cc1 (stereo not given)
97.8,Cc1cc(-c2c(C)sc(C)c2S(=O)(=O)Nc2ccc(F)c(Cl)c2)n[nH]1
96.1,Cn1ncc2c(Nc3ccccc3Cl)ncnc21
105.8,CCc1cc2c(N3CCC(C)CC3)ncnc2s1
117.8,CCOc1ccc(C2C(N3C(=O)c4ccc([N+](=O)[O-])cc4C3=O)C(=O)N2c2ccc(Br)c(C)c2)cc1 (stereo not given)
112.9,Cc1nn(-c2cccc(F)c2)c2sc(C(=O)OCCc3ccccn3)cc12
116.1,O=C(NCCSCc1ccccc1)c1ccc(N2CC3CC(C2)c2cccc(=O)n2C3)c(NC(=O)c2cccnc2)c1 (stereo not given)
-62.4*,CCN1/C(=C/C=C/c2n(CC)c3cc(Cl)ccc3[n+]2Cc2ccccc2)N(Cc2ccccc2)c2ccc(Cl)cc21
107.4,CCOC(=O)C1=c2s/c(=C/c3cccc(Br)c3)c(=O)n2C(N)=C(C#N)C1c1cccc(Br)c1 (stereo not given)
104.7,CC(=O)N1CCC(C(=O)NCc2ccccc2)(N(C(=O)c2ccccc2Br)c2ccc(C)cc2)CC1
101.6,COc1ccc(CNC(=O)C2(C)Cc3ccccc3C(=O)N2C(C)C)cc1 (stereo not given)
103.3,COc1ccc(N2CCN(C(=O)Cn3ccc4c(SCc5ccccc5)nccc43)CC2)cc1
105.2,Cc1[nH]c(C)c(S(=O)(=O)N2CCN(C(C)C)CC2)c1-c1nnc(C2CCC2)o1
104.6,COc1ccc(NC(=O)CSc2nccnc2Oc2ccc(C)cc2)cc1OC
120.7,Cc1cccc(Cn2nc3c(S(=O)(=O)N4CCc5ccccc5C4)cccn3c2=O)c1
104.2,Cc1cn(-c2nc(-c3ccccc3)oc2-c2ccccc2)c(=O)[nH]c1=O
106.6,CCCCOc1ccc(C2C(N3C(=O)c4ccc([N+](=O)[O-])cc4C3=O)C(=O)N2c2ccc(Cl)cc2)cc1 (stereo not given)
97.6,CC1CCN(c2ncc3c(n2)CCC(C(=O)NCCc2cccs2)C3)CC1 (stereo not given)
113.1,O=C(Nc1cc2c3c(c1)C1CCCC1CN3CC1CCCC21)c1ccc(Cl)cc1 (stereo not given)
108.9,Cc1ccccc1C(=O)Nc1ccc(N2CCN(c3ccc(Cl)cc3)CC2)c(C(=O)O)c1
103.9,CCOC(=O)c1ccccc1NC(=O)CSc1nc2n[nH]c(C)c2c(=N)n1-c1ccccc1Cl
112.3,CC1=C(C(=O)OCCOc2ccccc2)C(c2cccs2)C2=C(CC(c3cccs3)CC2=O)N1 (stereo not given)
105.6,Cc1nn(-c2nc3ccccc3n2C)c2c1C(c1ccccc1Cl)CC(=O)N2 (stereo not given)
117.5,Cn1c(=O)c(C(=O)Nn2c(Cc3ccccc3)nc3ccccc3c2=O)c(O)c2ccccc21
99.0,CC(=O)OCC1OC(Oc2ccc(C(=O)Cc3cscn3)c(O)c2)C(OC(C)=O)C(OC(C)=O)C1OC(C)=O (stereo not given)
106.7,COc1ccc(NC(=O)CSc2nc3ccccc3c(=O)n2CCCC(=O)NCC2CCCO2)c(OC)c1 (stereo not given)
105.0,COc1cccc(-c2nc3sc4c(c3c(=O)n2CC(=O)Nc2cccc(C(F)(F)F)c2)CCCC4)c1
104.3,CCOC(=O)C1=C(CSc2nc(C)c(C)c(C)c2C#N)OC(N)=C(C#N)C1c1ccc(OCc2ccccc2)cc1 (stereo not given)
103.4,Fc1ccc(N=c2scc(-c3ccc(F)cc3)n2CCc2ccccc2)cc1
101.1,O=S(=O)(Nc1cccc(F)c1)c1cccc2nsnc12
100.2,CCC(C)NC(=O)CCn1c(=O)c2ccccc2n2c(SCC(=O)NCC3CCCO3)nnc12 (stereo not given)
97.8,COc1ccc(-c2nn(-c3ccccc3)cc2/C=C2\N=C(c3ccccc3)OC2=O)cc1OC
108.4,O=C(Nc1nc2ccccc2n1CCOc1ccc(Br)cc1)c1cccs1
100.8,Cc1nc2c(C)cccn2c(=O)c1NC(=O)c1ccc(Br)cc1
95.7,COc1ccc(-c2nc3ccccc3c3nnc(SCc4ccncc4)n23)cc1
103.7,Cn1c(=O)c(C(=O)Nc2ccccc2Br)nc2ccccc21
104.6,CCc1cc(Sc2nnc(NC(C)=O)s2)n2ncnc2n1
101.6,Cc1ccc(-c2csc(Cc3nc(-c4cccc(F)c4)no3)n2)cc1
105.6,Cc1nc(CN2C(=O)COc3ccc(S(=O)(=O)N4CCOCC4)cc32)no1

Exported field by field: four of the compounds above.
canonical_smiles: CC(=O)OCC1OC(Oc2ccc(C(=O)Cc3cscn3)c(O)c2)C(OC(C)=O)C(OC(C)=O)C1OC(C)=O (stereo not given)
- GIV Gai3 FP: 99.0

canonical_smiles: COc1ccc(NC(=O)CSc2nc3ccccc3c(=O)n2CCCC(=O)NCC2CCCO2)c(OC)c1 (stereo not given)
- GIV Gai3 FP: 106.7

canonical_smiles: COc1cccc(-c2nc3sc4c(c3c(=O)n2CC(=O)Nc2cccc(C(F)(F)F)c2)CCCC4)c1
- GIV Gai3 FP: 105.0

canonical_smiles: CCOC(=O)C1=C(CSc2nc(C)c(C)c(C)c2C#N)OC(N)=C(C#N)C1c1ccc(OCc2ccccc2)cc1 (stereo not given)
- GIV Gai3 FP: 104.3

Next records follow:
GIV Gai3 FP,compound
99.7,FC(F)(F)c1cccc(-n2cc(-c3ccccc3)c3c(N4CCC5(CC4)OCCO5)ncnc32)c1
105.1,CCC1CCCCN1C(=O)c1c[nH]c2ccc(S(=O)(=O)N(C)c3ccc(Br)cc3)cc2c1=O (stereo not given)
106.3,N#CC1=C(SCC(=O)Nc2cccc(Cl)c2)NC2=C(C(=O)CCC2)C1c1cccs1 (stereo not given)
110.6,CCN(Cc1ccccc1)S(=O)(=O)c1ccc(F)c(C(=O)Nc2ccccc2Cl)c1
115.6,COc1cccc(C2Nc3cccc4cccc(c34)N2)c1OC
115.6,CC(=O)OC1CCCC2=CCC3C(CCC4(C)C3C[C@@H](C)[C@]4(C)C(C)=O)C21C (stereo not given in full)
103.7,Cc1cc2c(cc1CNC(=O)c1ccc3c(c1)OCCO3)OCCCO2
103.0,O=C(Nc1sc2c(c1C(=O)Nc1ccc(Cl)cc1)CCCCC2)c1ccccc1Cl
103.6,O=C(Nc1ccccc1)c1nnc(C2CCCN(C(=O)Nc3ccc(F)cc3F)C2)s1 (stereo not given)
104.9,NC(=O)C1(N2CCCCC2)CCN(C(=O)c2ccc(-n3c(=S)[nH]c4ccccc4c3=O)cc2)CC1
104.0,CCCn1cc(C2=CCN(C(=O)NCC3CCCO3)CC2)c2cccnc21 (stereo not given)
108.8,O=C(Cc1c(F)cccc1Cl)Nc1cc(C(=O)NCc2cccs2)ccc1N1CC2CC(C1)c1cccc(=O)n1C2 (stereo not given)
107.4,O=C(NCCC1=CCCCC1)C1CCN(c2ncc(-c3ccccc3)cn2)CC1
103.5,CC(C)c1cc(C(=O)N2CCCC2c2cc(C(C)C)on2)no1 (stereo not given)
107.4,CC1(C)CN(C(=O)C2CC2)c2ccc(S(=O)(=O)N3CCN(c4ccccn4)CC3)cc21
107.8,Cc1nc(Nc2nc(-c3ccccc3)cc(=O)[nH]2)nc2ccccc12
104.9,Cc1nnc2c(Nc3ccc(Cl)cc3)nc3nonc3n12
98.3,c1csc(-c2cc(CN3CCOCC3)[nH]n2)c1
103.4,Cc1cc(N2CCOCC2)nc(N2CCN(S(=O)(=O)c3cc(C)c(C)cc3C)CC2)n1
104.2,C=CCN1C(=S)NC2(O)c3ccccc3C(=O)C12O (stereo not given)
98.0,Cc1cc(C)c2c(=O)cc(CSc3nnc(-c4cccc(F)c4)n3C)[nH]c2c1
111.8,CC(C)OC(=O)Nc1ccc2c(c1)Nc1ccccc1CC2
112.4,CCOc1ccc2c(c1)C(C)CC(C)(C)N2C(=O)Nc1cccc(Cl)c1 (stereo not given)
99.5,COc1ccc(NC(=O)CC2CCN(C(=O)c3cn(-c4ccccc4)nc3-c3ccccc3)CC2)cc1
108.0,Cc1ccc(C(=O)Nc2ccc(-c3ccc4ccccc4n3)cc2)cc1
107.6,O=C(NC1CCCN(c2cc(N3CCCC3)ncn2)C1)c1ccoc1 (stereo not given)
97.1,COc1cccc(-c2nc(C)c(-c3ccc(SCc4cccnc4)nn3)s2)c1
105.9,CCc1cc(C2CCCN2C(=O)NCC2CCCO2)on1 (stereo not given)
104.2,O=C(COc1ncnc2onc(-c3ccccc3)c12)NCc1ccccc1Cl

Filtered by structure, those above containing a cyano group (4)
GIV Gai3 FP,compound
101.2,CCOc1cc(C2C(C#N)=C(N)OC3=C2C(=O)CC(c2ccco2)C3)ccc1OC(=O)c1ccco1 (stereo not given)
107.4,CCOC(=O)C1=c2s/c(=C/c3cccc(Br)c3)c(=O)n2C(N)=C(C#N)C1c1cccc(Br)c1 (stereo not given)
104.3,CCOC(=O)C1=C(CSc2nc(C)c(C)c(C)c2C#N)OC(N)=C(C#N)C1c1ccc(OCc2ccccc2)cc1 (stereo not given)
106.3,N#CC1=C(SCC(=O)Nc2cccc(Cl)c2)NC2=C(C(=O)CCC2)C1c1cccs1 (stereo not given)

These rows are one share of the data, so the mix of outcomes need not match the whole.
